Biofilm kill mix – mixture kills Candida albicans biofilm cells; AID 1242; hit rate 0.02% among 120,000; inhibition, % at 7.6 µM; C. albicans biofilm persisters + clotrimazole, fluorescence viability; primary screen in compound mixtures of four per well;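 active = inhibition above 30.3% in the primary screen of four-compound pools, then above 30% when the compound was retested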;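 also: compounds exposed to preformed 24 h biofilms for 48 h; the number belongs to the whole pool; some results filed as inactive read as strong as hits; inactives centre near 12; 0% = biofilm with clotrimazole alone and 100% = kill control; retested singly at about 60 µM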
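Assay system: C. albicans biofilms / Medium: RPMI/MOPS medium, pH 7.0 / Schedule: biofilm formation 24 h, compound exposure 48 h, 37 °C / Measured by: Alamar Blue fluorescence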
Numbers without * were called inactive. Some of the compounds tested; rates above refer to the full screens.

SMILES | Biofilm kill mix
COc1ccc(CCNC(=O)CN(c2ccc(OC)cc2)S(C)(=O)=O)cc1 | 10
COc1ccc(-c2nnc(Nc3ccc(OC)c(C(=O)N4CCCCC4)c3)c3ccccc23)cc1 | 15
CC12CCC(C/C1=N/NC(=O)Nc1ccccc1)C2(C)C (centres undefined) | 20
O=C(NC1CCCC1)c1cc2nc(-c3ccccc3)cc(-c3ccccc3)n2n1 | 6
COc1ccccc1C(C)N(C)Cc1nc(COc2ccccc2)no1 (centres undefined) | 34
Cc1cc(C)nc(N(C#N)Cc2ccc([N+](=O)[O-])cc2)n1 | -3
Cc1cc(C(=O)NNc2ccc(Cl)cc2)no1 | 10
Cc1c(OCC(=O)NC(Cc2c[nH]c3ccc(O)cc23)C(=O)O)ccc2c3c(c(=O)oc12)CCC3 (centres undefined) | 22
CCOC(=O)N1CCN(C(=O)/C(=C/c2ccc(Br)cc2)NC(=O)c2ccc(OC)cc2)CC1 | 12
Cc1ccc(OCCNS(=O)(=O)c2ccc(N3CCCC3=O)cc2)cc1 | 6
Cc1ccc(S(=O)(=O)N2CCCCC2)cc1C(=O)Nc1cccnc1 | 6
COC(=O)c1sccc1NC(=O)CC1C(=O)NCCN1C(=O)c1ccccc1 (centres undefined) | 14
COC(=O)c1ccccc1Nc1cc(C)nc2nc(C)nn12 | 15
CC(C)[C@H](NC(=O)c1ccccc1)C(=O)OCC(=O)Nc1ccc2c(c1)OCCO2 | 12
NNC(=O)c1ncoc1-c1ccc(Cl)cc1 | 17
Cc1ccc(C2(COC(=O)C(C)C)CO2)c(OC(=O)C(C)C)c1 (centres undefined) | 23
O=C1CCCC/C1=N\Nc1ccc(OCc2ccccc2)cc1 | 18
CCCCn1c(=O)c(F)cn(Cc2ccc(OC)c([N+](=O)[O-])c2)c1=O | 18
CC(C)CCNCC(=O)NC(c1ccccc1)c1ccccc1 | 2
Cc1cccc(NC(=O)c2ccc(NC(C)c3ccccc3)c([N+](=O)[O-])c2)n1 (centres undefined) | 11
CCc1cccc(NC(=O)Cc2ccc(OC)c(OC)c2)c1 | 21
O=C(O)C1C(C(=O)O)C1(c1ccccc1)c1ccccc1 (centres undefined) | 31
CCn1cc(C(=O)Nc2ccc(C)c([N+](=O)[O-])c2)cn1 | 6
CCn1c(O)c(N=NC(=O)CNC(=O)c2ccco2)c2ccccc21 | 11
CC(=O)N1CCOCCOCCOCC1 | 10

Continued.
SMILES | Biofilm kill mix
COc1ccc(S(=O)(=O)NC(Cc2cnc[nH]2)C(=O)O)cc1 (centres undefined) | 12
COc1ccc(S(=O)(=O)Nc2cc(C(=O)NCCCN3CCOCC3)ccc2N2CCOCC2)cc1 | 0
CNC(=O)COC(=O)COc1ccc2c(C)cc(=O)oc2c1 | 16
Cc1nc(C)c(CCNC(=O)c2ccccc2Br)s1 | 13
Cc1nnsc1C(=O)NNS(=O)(=O)c1cc(C(F)(F)F)cc(C(F)(F)F)c1 | 9
CCOC(=O)c1c(NC2=NS(=O)(=O)c3ccccc32)sc2c1CCCCC2 | -11
Cc1ccc(C)c(S(=O)(=O)N2CCN(CC(=O)NC(=O)NCc3ccco3)CC2)c1 | -5
COc1ccc(N2CCN(c3cnc4ccccc4n3)CC2)cc1 | 16
CC(C)(C)[C@@H]1C=C(C(=O)O)O[C@H](OCc2ccc(CO)cc2)C1 | 13
O=C1c2ccccc2NC(c2ccccc2O)N1NS(=O)(=O)c1ccccc1 (centres undefined) | 9
COC(=O)c1cc2c(N)c(C(=O)c3ccc(Cl)cc3)sc2nc1C(OC)OC | 12
Cc1ccc(N=C2NC(=O)c3cccc([N+](=O)[O-])c32)cc1 | 16
O=S(=O)(c1ccc(N2CCCCCC2)nc1)N1CCCC1 | 14
Cn1cc(-c2cccc(Cl)c2)cc(C#N)c1=O | -2
COc1ccc(C(=O)N2CC3(CC(c4cccc(NC(=O)CC(c5ccccc5)c5ccccc5)c4)=NO3)C[C@H]2C(N)=O)cc1 (some centres undefined) | 13
CC(=O)NC(CC(=O)N(C)Cc1c(F)cccc1Cl)c1ccccc1 (centres undefined) | 8
O=C(NCCCn1ccnc1)C(=O)NCc1ccccc1 | 17
O=C1CC(C(F)(F)F)=NN1 | 20
Cc1ccc(N(C(=O)c2snc(C(N)=O)c2N)C(C(=O)NCCC(C)C)c2ccco2)cc1 (centres undefined) | 12
COC(=O)C(C)SC1=N/C(=C/c2ccc(-n3cncn3)cc2)C(=O)N1 (centres undefined) | 20
O=C(c1cncc(Br)c1)N1CCN(c2ccc([N+](=O)[O-])cc2)CC1 | 13
CCc1[nH]nc2c1C(C1C=CCCC1)C(C#N)=C(N)O2 (centres undefined) | 4
CCc1cc2c(NC(Cc3c[nH]c4ccccc34)C(=O)O)nc(C)nc2s1 (centres undefined) | 5
COc1ccc(N2CC(NC(=O)N3CCN(c4ccccc4)CC3)CC2=O)cc1 (centres undefined) | 15
Fc1ccccc1CSc1ncnc2sc3c(c12)CCCC3 | 16

The list continues.
SMILES | Biofilm kill mix
Cc1cc(C)nc(SCC(=O)OCC(=O)Nc2nc3ccccc3s2)n1 | 17
Cc1cc(O)ccc1N/C=C(\C#N)c1nc2ccccc2o1 | 8
Cc1ccc(NC(=O)CCNS(=O)(=O)c2cccc3nonc23)cc1Cl | 24
CS(=O)(=O)N(CC(=O)NCC1CCCO1)c1cc(Cl)c(Cl)cc1Cl (centres undefined) | 8
CC(C)c1nc2sc3c(=O)[nH]cnc3c2c2c1CCC2 | -3
O=C(COC(=O)[C@@H]1CC(O)CN1S(=O)(=O)c1ccc2c(c1)OCCO2)Nc1ccccc1F (some centres undefined) | 14
CCCOc1ncnc2c1[nH]c1ccc(C)cc12 | 8
O=C(CSCc1ccc([N+](=O)[O-])cc1)NC1CC1 | 19
Nn1c(SCc2cccc(Br)c2)nnc1-c1cccnc1 | 19
CCOC1=NN(c2ncc(C(F)(F)F)cc2Cl)C(=O)/C1=C/N(C)C | -6
COc1ccc(-n2c3nc4ccccc4nc3c3c(=N)oc(C)nc32)cc1 | 11
CC1=C(C(=O)OCc2ccccc2)C(c2ccccc2OC(F)F)NC(=O)N1 (centres undefined) | 16
Cc1occc1C(=O)NNC1=CC(=O)CC(C)(C)C1 | 5
Cc1noc(C)c1C(=O)N1CCC(C(=O)c2ccccc2)CC1 | 12
COC/C=C/C1=CC2=CC(=O)C(C)(OC(=O)c3cnc4ccccc4n3)C(=O)C2=CN1C(CO)CO (centres undefined) | 20
CCOc1ccc(N2C(=O)C3C(c4ccccc4F)NN(C(=O)c4ccc(C)cc4)C3C2=O)cc1 (centres undefined) | 17
C[N+]1(CCn2ccc3ccccc32)CCCCC1 | 21
CC1(c2ccc(OC(F)F)cc2)NC(=O)N(CC(=O)Nc2ccc(S(N)(=O)=O)cc2)C1=O (centres undefined) | 9
CCN1C(=O)[C@H]2[C@H]3[C@H](O)[C@H](O)C/C(=N\O[C@H](C)c4cn([C@H](CO)Cc5ccccc5)nn4)[C@@H]3CC[C@H]2C1=O | 7
CC1=CC(C)C2(CO)COC(c3ccc(O)cc3)C1C2C (centres undefined) | -5
COc1ccc2c(c1)c1nc3ccccc3nc1n2Cc1ccc(OC)c(OC)c1 | 11
CCN(CC)C(=O)CCc1nnc(CCc2c[nH]c3ccccc23)o1 | 4
O=C(CCN1C(=O)c2ccccc2C1=O)NC(=S)Nc1ccccc1 | 13
CC(C)CC(NC(=O)OC(C)(C)C)c1cn([C@@H](Cc2cc3ccccc3[nH]2)C(=O)N2CCN(C(=O)OC(C)(C)C)CC2)nn1 (some centres undefined) | 19
COC(=O)CCC(=O)NN1C(=O)c2ccccc2C1=O | -3

Structural class: those above containing a thiophene ring, fused or not.
SMILES | Biofilm kill mix
COC(=O)c1sccc1NC(=O)CC1C(=O)NCCN1C(=O)c1ccccc1 (centres undefined) | 14
CCOC(=O)c1c(NC2=NS(=O)(=O)c3ccccc32)sc2c1CCCCC2 | -11
COC(=O)c1cc2c(N)c(C(=O)c3ccc(Cl)cc3)sc2nc1C(OC)OC | 12
CCc1cc2c(NC(Cc3c[nH]c4ccccc34)C(=O)O)nc(C)nc2s1 (centres undefined) | 5
Fc1ccccc1CSc1ncnc2sc3c(c12)CCCC3 | 16
CC(C)c1nc2sc3c(=O)[nH]cnc3c2c2c1CCC2 | -3

Some of the entries so far, as comma-separated lines.
smiles,Biofilm kill mix
Cc1ccc(NC(=O)CCNS(=O)(=O)c2cccc3nonc23)cc1Cl,24
CCN1C(=O)[C@H]2[C@H]3[C@H](O)[C@H](O)C/C(=N\O[C@H](C)c4cn([C@H](CO)Cc5ccccc5)nn4)[C@@H]3CC[C@H]2C1=O,7
O=C(COC(=O)[C@@H]1CC(O)CN1S(=O)(=O)c1ccc2c(c1)OCCO2)Nc1ccccc1F (some centres undefined),14
CC1=CC(C)C2(CO)COC(c3ccc(O)cc3)C1C2C (centres undefined),-5

Two of these compounds, reformatted:
smiles	Biofilm kill mix
CC1(c2ccc(OC(F)F)cc2)NC(=O)N(CC(=O)Nc2ccc(S(N)(=O)=O)cc2)C1=O (centres undefined)	9
CCN1C(=O)[C@H]2[C@H]3[C@H](O)[C@H](O)C/C(=N\O[C@H](C)c4cn([C@H](CO)Cc5ccccc5)nn4)[C@@H]3CC[C@H]2C1=O	7

New compounds follow
SMILES | Biofilm kill mix
O=[N+]([O-])c1ccc(-c2cnc[nH]2)cc1 | 16
COc1cccc(NC(=O)C(=O)NCc2ccncc2)c1 | 8
CCCNC(=O)CN(Cc1ccco1)S(=O)(=O)c1ccc(OCC)cc1 | 6
CCOc1cccc(/C=C/c2cc(C(=O)O)c3ccccc3n2)c1OC | 16
Cc1sc2nc(SCc3ccc(C(=O)O)cc3)n(Cc3ccco3)c(=O)c2c1C | 21
O=C(CSc1nccc(-c2cccs2)n1)Nc1cccc(Cl)c1Cl | 18
COc1ccc(-c2cc(=NC(CC(C)C)C(=O)O)c3cc(C)ccc3o2)cc1 (centres undefined) | 21
O=C(OCc1nnc(-c2ccccc2)o1)c1ccc(Cl)cc1 | 7
Cc1ccc(S(=O)(=O)NNC(=O)Nc2ccc(Cl)c(Cl)c2)cc1 | 15
O=C(O)c1c(-c2ccc(Cl)cc2)cn2ccccc12 | -14
Cc1ccc(C(=O)NCc2ccccc2)cc1Br | 12
Cc1cc(C)nc(SCc2ccc(C(=O)N/N=C/c3cccc(O)c3O)cc2)n1 | 15
O=C1C(Cl)=C(N2CCN(c3ccccc3[N+](=O)[O-])CC2)C(=O)c2ccccc21 | 3
CCn1nc(NC(=O)C2CCCO2)c2cc3cccc(C)c3nc21 (centres undefined) | -1
CCOc1ccc(/C=C/c2c([N+](=O)[O-])c(=O)n(C)c(=O)n2C)cc1 | 18
CCNc1nc(NCC)nc(N/N=C/c2ccc(OC)cc2)n1 | 9
CC1CCN(c2ccc(C(=O)Nc3nnc(C4CC4)s3)cc2[N+](=O)[O-])CC1 | 16
O=C(Oc1ccc(Cl)c2cccnc12)c1cccc([N+](=O)[O-])c1 | 2
Cc1cc(C)n(-c2ccc([N+](=O)[O-])cc2)n1 | 15
CC(/C=N/NC(=O)c1ccccc1F)c1ccccc1 (centres undefined) | 9
C=CCOc1cccc(C(=O)N2CCCC(CNS(=O)(=O)c3cccs3)C2)c1 (centres undefined) | -6
CSc1ccc(C(=O)C2CCCN(C(=O)c3cc4cc(F)ccc4[nH]3)C2)cc1 (centres undefined) | 13
CC(=O)Nc1ccc(NC(=O)c2ccccc2Sc2ccc([N+](=O)[O-])cc2Cl)cc1 | 8
C#CCOCCOCCOCCNc1nc(N2CCN(C(=O)Cn3cc(CCO)nn3)CC2)nc(N2CCN(C(=O)[C@H](C(C)C)n3cc(CCO)nn3)CC2)n1 | 2
NS(=O)(=O)c1ccc(NC(=O)CN2C(=O)CCC2=O)cc1 | 9

Ordered by molecular weight (smallest number first): part of the list above
SMILES | Biofilm kill mix
CC1=CC(C)C2(CO)COC(c3ccc(O)cc3)C1C2C (centres undefined) | -5
O=C(Oc1ccc(Cl)c2cccnc12)c1cccc([N+](=O)[O-])c1 | 2
O=C(COC(=O)[C@@H]1CC(O)CN1S(=O)(=O)c1ccc2c(c1)OCCO2)Nc1ccccc1F (some centres undefined) | 14

Additional compounds follow:
SMILES | Biofilm kill mix
CN1c2ccsc2/C(=N/Nc2ccc(F)cc2)CS1(=O)=O | -7
CCOc1c(Br)cc(CNCc2cccs2)cc1OC | 21
O=C1C2C3CCC(C3)C2C(=O)N1CNc1ccccc1 (centres undefined) | 13
CCc1ccc(NC(=S)Nn2cnnc2)cc1 | 13
Cn1cc([N+](=O)[O-])c(C(=O)Nc2ccc(-c3nc4ccccc4o3)cc2)n1 | 19
CC(C)(C)CN1C(=O)C(=O)NC[C@H]1Cc1cccc2ccccc12 | 7
CCOc1cc(/C=C(\C#N)C(=O)NCC2CCCO2)ccc1O (centres undefined) | -5
CC(C)c1ccccc1OCCNC(=S)NC(=O)c1cccnc1 | -9
O=S(=O)(NCc1ccccc1)NCc1ccccc1 | 15
NC(=O)CSc1nnc(-c2ccccn2)n1Cc1ccco1 | 21
O=C1Nc2ccccc2/C1=N/N=C/c1cccc(O)c1 | 4
CC(=O)NC(Cc1ccccc1)C(C)=O (centres undefined) | 4
CCOC(=O)C1CCCN(CC(=O)Nc2cccc(C(C)=O)c2)C1 (centres undefined) | 13
CCO[C@@H]1OC(C(=O)N2CCCCCCC2)=C[C@H](c2ccc(C(F)(F)F)cc2)[C@H]1CCCO | 15
c1ccc(C2[C@H]3CN(CC4CCCCC4)[C@H](c4ccccc4)C34CC2(c2cccnc2)C4)cc1 (some centres undefined) | 18
CC(=O)N1CCCc2cc(S(=O)(=O)N3CCC(C)CC3)ccc21 | 9
O=C(CNC(=O)c1ccccc1)NCC(=O)OCC(=O)c1ccccc1 | 9
CCC(C)(C)NC(=O)C1CCN(S(=O)(=O)c2cccs2)CC1 | 8
COC(=O)N1CC=CC1(C)C(=O)NCc1cc(F)cc(C(F)(F)F)c1 (centres undefined) | 18
O=C(NC1CCS(=O)(=O)C1)/C(=C\c1ccccc1)NC(=O)c1ccccc1 (centres undefined) | 1

Assay outcomes deposited in PubChem BioAssay by PCMD.
